# From PubChem
# Calb FLC: C. albicans growth modulation with fluconazole. C. albicans CaCi-2 (fluconazole-resistant clinical isolate) + fluconazole, Alamar Blue growth, 48 h. growth inhibition, % (test concentration not listed). 0.57% of 300,000 active;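 active = most replicates above 75%; inconclusive = exactly half above 75%; inactive = most below 75%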;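 also: all wells also contain fluconazole at 8 µg/ml as a sub-toxic cotreatment; 0% = median of DMSO wells and 100% = median of geldanamycin control wells; wells of about 8 µL received 7.5 nL stock; the first replicate is given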
# ALR inh: blocks human ALR sulfhydryl oxidase activity | purified ALR, DTT oxidation, H2O2 HRP-luminol luminescence | inhibition, % (test concentration not listed) | 3.8% of 290,000 active;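 active = mean and each replicate at 75% or more; inconclusive = only one of the two met; inactive = neither met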;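 also: stock transfer was 7.5 nL into about 7.5 µL; 0% = neutral wells and 100% = wells with inactivated enzyme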
# Target sequence (P55789 whole entry, looked up): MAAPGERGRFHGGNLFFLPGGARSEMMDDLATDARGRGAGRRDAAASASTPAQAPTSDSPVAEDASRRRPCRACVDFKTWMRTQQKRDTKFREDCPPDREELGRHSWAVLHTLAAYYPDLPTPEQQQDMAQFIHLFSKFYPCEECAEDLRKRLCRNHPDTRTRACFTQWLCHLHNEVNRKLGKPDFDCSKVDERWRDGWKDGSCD
# B2AR ag: human beta-2 adrenergic receptor agonism by FAP. 0.43% of 340,000 active. P07550. Am2.2-beta2AR cells, FAP receptor internalization, flow cytometry; reference of the scale not given here. AID 504454. response, % (test concentration not listed);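 active = response above a set limit, near 3 SD of response in nonfluorescent compounds, cut at about 42% in these data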;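 also: stock transfer was 100 nL into about 11 µL; a reference agonist was the positive control; negative values mostly stem from fluorescent compounds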
# Target sequence (P07550 whole entry, looked up): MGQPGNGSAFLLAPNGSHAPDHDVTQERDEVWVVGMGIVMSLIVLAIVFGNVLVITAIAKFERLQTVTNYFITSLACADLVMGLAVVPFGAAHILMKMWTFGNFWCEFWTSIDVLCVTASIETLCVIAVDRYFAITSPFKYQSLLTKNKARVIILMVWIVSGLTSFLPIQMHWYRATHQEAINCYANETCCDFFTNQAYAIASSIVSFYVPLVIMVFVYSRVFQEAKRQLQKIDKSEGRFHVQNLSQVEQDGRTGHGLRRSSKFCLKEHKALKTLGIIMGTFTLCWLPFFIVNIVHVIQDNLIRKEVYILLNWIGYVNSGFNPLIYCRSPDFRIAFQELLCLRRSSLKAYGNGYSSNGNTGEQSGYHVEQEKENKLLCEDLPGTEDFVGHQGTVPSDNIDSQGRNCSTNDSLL
# LANA-H2B inh: blocks KSHV LANA binding to histone H2A/H2B; inhibition, % (concentration not given with the values); Q9QR71; 0.6% of 320,000 active; cell-free LANA-H2A/H2B peptide, fluorescence polarization; AID 2629; in the data active = inhibition mostly above about 10%, no sharp cut-off; inactive = mostly below about 6.7%;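 also: stock transfer was 7.5 nL into about 10 µL; 0% = median of vehicle wells and 100% = median of positive control wells; one replicate is shown; the record names a cut of 25% in any replicate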
# Beta cell apopt: beta cell apoptosis inhibition; 0.8% of 300,000 active; AID 435005; protection from apoptosis, % (no concentration beside the values); INS-1E cytokine-induced death, ATP luminescence, 48 h; percent of positive-control rescue, neutral wells zero;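 active = all replicates at 75% or more, or half of them and the mean; inconclusive = half reach 75% but not the mean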;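 also: 0% = cytokine-treated negative control wells and 100% = positive control rescue; higher means more ATP so stronger rescue from cytokine killing; wells of about 40 µL received 100 nL stock; the first replicate is given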
# Ecoli rRNA inh: inhibitors of bacterial rRNA selective over humanized ribosomes; 1.6% of 350,000 active; AID 720706; GFP signal change (wild-type ribosome), % (no concentration beside the values); E. coli WT GFP vs humanized-ribosome RFP mutants, fluorescence, 24 h; hits give low values; DMSO median 0, no signal -100;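 active = significant combined selectivity score with lowered wild-type GFP, culture density cut under 30%, mutant RFP and density less affected; inactive = any of these conditions unmet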; also: one replicate is shown; some compounds called inactive have numbers as strong as hits
# A1 inh: inhibitors of the anti-apoptotic protein A1, read as caspase activation | AID 2462 | MEF A1-2A-BIM cells, Caspase-Glo 3/7 luminescence, 3 h; percent of clofoctol response, vehicle zero | caspase activation, % (test concentration not listed) | 0.066% of 330,000 active;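 active = over half of replicate activation scores above 10%, or exactly half above 10 with the replicate mean above 10; inconclusive = replicate mean below 10 yet half the replicates above 10; inactive = over half of replicates below 10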;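 also: wells of about 30 µL received 50 nL stock; many hits fall short of the cut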
# T cruzi inh: T. cruzi replication inhibition. T. cruzi beta-gal in NIH3T3, luminescence, 90 h. inhibition, % (concentration not given with the values). 1.4% of 300,000 active;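 active = mean inhibition across valid replicates above about 55%, limit read from the data; inconclusive = mean below that limit but half or more replicates reach it; inactive = mean below it, under half of replicates reach it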;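 also: signal also drops with host cell toxicity which is not excluded here; 0% = plate median of DMSO wells and 100% = zero luminescence signal; higher percent means less beta-gal luminescence so fewer parasites; stock transfer was 50 nL into about 50 µL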
# Ecoli rRNA inh OD600: recorded beside Ecoli rRNA inh, whose call it bears; OD600 change, %; measured here: OD600 growth;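 optical density of the mix in the first replicate; 0 = DMSO median and -100 = no signal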
# Ecoli rRNA inh RFP: also measured in Ecoli rRNA inh; calls as there; RFP signal change, %; measured here: RFP humanized mutant strains;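 first replicate; 0 = DMSO median and -100 = no signal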
# The depositor's hits bear a star; ? = inconclusive; . = not tested or not shown. Some of the compounds tested (hit frequency here may not be typical).
canonical_smiles	Calb FLC	ALR inh	B2AR ag	LANA-H2B inh	Beta cell apopt	Ecoli rRNA inh	Ecoli rRNA inh OD600	Ecoli rRNA inh RFP	A1 inh	T cruzi inh
COc1ccc(N2C(=O)CC(NCc3ccc(F)cc3)C2=O)cc1 (configuration not stated)	1	0	-3	-3.7	2	.	.	.	0.0	-15
Cc1ccc(S(=O)(=O)C(C#N)c2nc3ccccc3nc2N2CCN(C)CC2)cc1C (configuration not stated)	83*	22	16	7.1	-10	.	.	.	-0.7	4
CCOC(=O)c1cnn2c1[nH]c(=O)c1ccccc12	.	.	-4	-4.0	-5	.	.	.	0.7	.
CCC(C)c1ccccc1NC(=O)COc1ccc(-n2cnnn2)cc1 (configuration not stated)	.	.	0	-2.3	2	7	14	-0.1	0.5	.
O=C(Oc1ccc2ccccc2c1)c1ccccc1	3	-17	4	-1.8	-6	.	.	.	-1.3	-4
O=C(NCc1ccccc1F)Nc1ccc([N+](=O)[O-])cc1	-34	-1	-5	-0.1	2	-38	-42	-7.4	-0.3	-10
Nc1ccccc1OCCOc1ccccc1N	4	8	9	-1.7	-6	-1	13	-0.1	-0.3	-5
Oc1ccc[n+](CCCCC[n+]2cccc(O)c2)c1	-4	1	-6	-3.2	-7	10	7	0.4	0.5	4
CCCOc1cccc(C2C(C(=O)c3ccc(C)o3)=C(O)C(=O)N2CCN2CCOCC2)c1 (configuration not stated)	3	6	-6	0.1	-2	-3	8	-7.0	-0.8	8
COc1ccc2c(c1OC)C(=O)OC2	-2	-5	4	4.3	-3	4	7	11	0.0	-9
COc1ccc(OCc2cccc(C(=O)Nn3cc([N+](=O)[O-])cn3)c2)cc1	?	-12	-13	-2.2	9	-47	-71	-20	-1.4	10
COC(=O)c1ccc(NC(=O)CCNS(=O)(=O)c2cccc3nonc23)cc1	-8	-16	-3	-0.2	-6	.	.	.	-0.2	-10
O=C(N/N=C/C=C/c1ccco1)/C(=C/c1ccccc1)NC(=O)c1ccccc1	-6	-10	-10	-2.0	-6	3	7	3.8	0.4	-30
CCOC(=O)C(CCCOc1ccccc1)C(=O)OCC	3	-3	9	0.3	-4	.	.	.	0.0	-12
O=C(COC(=O)/C=C/c1ccc(OC(F)F)cc1)NCc1cccs1	-1	-1	-2	4.0	-1	2	6	-4.5	1.7	-3

# New compounds follow
canonical_smiles	Calb FLC	ALR inh	B2AR ag	LANA-H2B inh	Beta cell apopt	Ecoli rRNA inh	Ecoli rRNA inh OD600	Ecoli rRNA inh RFP	A1 inh	T cruzi inh
CC(=O)Nc1cccc(N(C)C)c1	10	12	29	5.4	-5	.	.	.	-0.6	7
O=C(NCCc1ccccn1)c1ccc(OC(F)F)cc1	-1	-6	-9	-2.1	0	11	12	-5.0	-1.3	-6
CC(=O)Nc1ccc(S(=O)(=O)NC2(C(F)(F)F)C(=O)Nc3c2c(=O)[nH]c(=O)n3Cc2ccco2)cc1 (configuration not stated)	-12	2	3	1.6	.	-3	7	3.3	1.9	4
CC1CN(C(=O)Nc2cccc(Cl)c2)C2(CCCCCC2)O1 (configuration not stated)	-10	-3	-1	3.4	0	16	13	4.1	0.4	-7
O=C(NC(=S)Nc1ccc(S(=O)(=O)Nc2ncccn2)cc1)c1cccc(Br)c1	17	-2	-2	-2.4	4	9	6	-2.1	-4.9	-4
COc1ccc(-c2nn(CCC#N)cc2C(=O)Nc2ccccn2)cc1OC	3	.	1	-0.8	1	1	3	0.5	0.0	2
O=c1[nH]c2ccccc2nc1-c1c[nH]c2ccccc12	0	3	-13	-1.8	-11	-26*	-4.5*	6.6*	-0.4	6
O=C(O)C1CCCCC1C(=O)Nc1ccccc1C(=O)N1CCN(c2ccc(F)cc2)CC1 (configuration not stated)	-3	15	-5	1.1	-8	.	.	.	0.4	-9
CC1Cc2ccccc2N1CC(=O)NCc1ccccc1Cl (configuration not stated)	4	.	2	6.7	-1	.	.	.	0.0	3
S=C(Sc1ccc(Cl)cc1)Sc1ccc(Cl)cc1	-26	5	.	-1.4	-3	.	.	.	2.1	63*
Cc1cc(OCCn2cnc3ccccc3c2=O)cc(C(C)C)c1	6	-16	2	0.9	4	.	.	.	0.7	28
CC(C)[C@H](CN(N=O)[C@@H](Cc1ccccc1)CN(C)N=O)N(CCc1ccccc1)N=O	-5	.	-3	-3.9	2	0	4	0.8	0.0	-8
N#C/C(=C\c1ccc(OCCN2CCOCC2)cc1)C(=O)Nc1ccccc1	1	9	-2	0.7	12	4	9	0.5	0.4	-6
Cc1ccccc1-c1nc(CN2CCC(C(=O)NC3CCCCC3)CC2)c(C)o1	-11	-8	-4	-3.2	-1	5	4	-0.2	0.2	9
COC(=O)c1sc2nc(CSc3ccc(Br)cc3)[nH]c(=O)c2c1C	13	-7	13	19	-12	4	-2	12	0.9	6

# (cont.)
canonical_smiles	Calb FLC	ALR inh	B2AR ag	LANA-H2B inh	Beta cell apopt	Ecoli rRNA inh	Ecoli rRNA inh OD600	Ecoli rRNA inh RFP	A1 inh	T cruzi inh
CC(NS(=O)(=O)c1ccc(Br)cc1)C(=O)NCc1ccc2c(c1)OCO2 (configuration not stated)	-8	-7	2	-2.6	-3	-4	28	2.5	-0.2	6
COc1ccc(/C=N/NC(=O)c2ccco2)cc1OCc1ccccc1	0	1	-8	0.6	-10	10	8	-0.8	0.7	8
Cc1ccnc2nc(C(=O)OCCOc3cccc(Br)c3)nn12	1	0	6	3.4	-4	.	.	.	1.2	6
CC(CN1CCOCC1)OC(=O)c1ccccc1 (configuration not stated)	7	.	1	-4.2	-2	6	4	0.3	-0.3	4
O=C(CSc1nnc(CNc2ccc(F)cc2)n1Cc1ccccc1)NCc1ccccc1	.	-10	-3	-3.9	-1	.	.	.	0.1	-8
CC(C)(C)C(=O)Nc1ccc(-c2csnn2)cc1	0	-2	-4	2.0	-3	2	4	-2.2	-0.4	-4
O=C(Nc1ccno1)Nc1ccc(Cl)cc1Cl	46	5	-2	1.0	.	-30*	-16*	5.3*	-4.2	.
O=C(Cn1c2ccccc2c(=O)c2cc([N+](=O)[O-])ccc21)Nc1ccccc1Cl	-12	1	16	-0.6	9	8	7	0.6	2.5	29
COc1ccccc1N1CCN(C(=O)C2CCCO2)CC1 (configuration not stated)	-19	8	-5	-3.5	-4	.	.	.	0.8	-7
COc1cccc(CNC(=O)Cn2cc([N+](=O)[O-])cn2)c1	1	-5	0	-0.3	-3	17	12	0.4	1.9	-6
CCN(CC)CCN(C(=O)c1ccc2ncsc2c1)c1nc2cc3c(cc2s1)OCO3	4	23	0	2.6	-9	7	1	-2.3	0.2	26
CCCC(=O)OCCNc1cc(Sc2nccn2C)c2nonc2c1[N+](=O)[O-]	14	97*	25	-6.9	-3	.	.	.	0.0	61*
COc1ccccc1-c1c(NC(=O)c2ccco2)n(C)c2ccccc2c1=O	35	-3	.	-3.6	-5	11	7	0.7	-0.3	-12
CC(=O)NC(Cc1cccc(F)c1)C(=O)NC1CCN(c2ncccc2[N+](=O)[O-])CC1 (configuration not stated)	-3	.	-5	1.6	-6	1	-4	-8.9	0.8	2
O=C(CCCNS(=O)(=O)c1ccccc1)NCc1ccco1	1	.	7	0.8	2	4	4	-2.9	1.0	-9

# (continued)
# Every second line gives: Calb FLC, ALR inh, B2AR ag, LANA-H2B inh, Beta cell apopt, Ecoli rRNA inh, Ecoli rRNA inh OD600, Ecoli rRNA inh RFP, A1 inh, T cruzi inh
COc1cc2c(cc1OC)CN(C(=O)c1ccc(S(=O)(=O)N3CCCCCC3)cc1)CC2
→ 8, -9, 3, 2.5, -1, ., ., ., -0.8, 10
CCOC(=O)[C@@H]1[C@H]2COc3ccccc3[C@H]2N2C(=O)N(c3ccc(C)cc3)C(=O)[C@]12C
→ 3, -24, 3, -0.8, -4, -49, -75, -24, 0.7, -12
C/C(=N\NC(=O)c1c[nH]c2ccccc12)c1ccc(C)o1
→ 16, 3, 19, -1.2, 1, ., ., ., 0.5, -2
CC(=O)c1cccc(NC(=O)CSc2ccc(-c3ccc4c(c3)OCO4)nn2)c1
→ -3, 47, -2, -4.8, 1, 4, -1, 2.9, -2.5, -4
Cc1nnsc1NC(=O)OCCCl
→ -4, -8, -5, 1.5, -6, ., ., ., 0.6, .
COC(=O)CCN(c1ccccc1)S(=O)(=O)c1cc(-c2cc(C)no2)ccc1OC
→ -6, 0, 4, -4.0, 5, -16, -14, 5.6, -0.6, -17
Cc1c(OCC(=O)OC(C)(C)C)ccc2c3c(c(=O)oc12)CCC3
→ 0, 0, -4, 1.2, -1, ., ., ., 0.4, -3
O=C(CN1C(=O)NC2(CCCCCC2)C1=O)N1CCN(c2ccc(F)cc2)CC1
→ ., 10, -4, 2.3, -8, -9, -14, 0.8, 0.2, .
Cc1ccc(/C=C2\OC(=O)c3ccccc32)cc1
→ -11, 1, -6, 5.9, -7, ., ., ., -11, -20
CCC1=C(OC(=O)N(CC)CC)N2C(=O)OC(=NCCc3c[nH]c4ccccc34)[C@]2(C)[C@H]2C1=CC[C@H]1C(=O)N(CC(=O)OC)C(=O)[C@H]12
→ -7, -57, 2, -3.8, 0, ., ., ., -1.0, 4
C=CCN(CC=C)C(=S)NC(=O)c1ccc([N+](=O)[O-])cc1
→ 9, 58, 3, -4.1, 13, ., ., ., -0.2, -34

# Fetched one by one from the list above (two):
# Every second line gives: Calb FLC, ALR inh, B2AR ag, LANA-H2B inh, Beta cell apopt, Ecoli rRNA inh, Ecoli rRNA inh OD600, Ecoli rRNA inh RFP, A1 inh, T cruzi inh
COC(=O)CCN(c1ccccc1)S(=O)(=O)c1cc(-c2cc(C)no2)ccc1OC
→ -6, 0, 4, -4.0, 5, -16, -14, 5.6, -0.6, -17
C=CCN(CC=C)C(=S)NC(=O)c1ccc([N+](=O)[O-])cc1
→ 9, 58, 3, -4.1, 13, ., ., ., -0.2, -34

# Profiles, looked up by structure:
# CC(=O)NC(Cc1cccc(F)c1)C(=O)NC1CCN(c2ncccc2[N+](=O)[O-])CC1 (configuration not stated) is entered as Calb FLC = -3; ALR inh = .; B2AR ag = -5; LANA-H2B inh = 1.6; Beta cell apopt = -6; Ecoli rRNA inh = 1; Ecoli rRNA inh OD600 = -4; Ecoli rRNA inh RFP = -8.9; A1 inh = 0.8; T cruzi inh = 2
# COc1ccc(/C=N/NC(=O)c2ccco2)cc1OCc1ccccc1 is entered as Calb FLC = 0; ALR inh = 1; B2AR ag = -8; LANA-H2B inh = 0.6; Beta cell apopt = -10; Ecoli rRNA inh = 10; Ecoli rRNA inh OD600 = 8; Ecoli rRNA inh RFP = -0.8; A1 inh = 0.7; T cruzi inh = 8
